N370S GC: qHTS Assay for Inhibitors and Activators of N370S glucocerebrosidase as a Potential Chaperone Treatment of Gaucher Disease. Potency, µM (series often up to 59.4 µM), for inactives: top-dose activity change, negative = inhibition, actives largely listed as inhibitors. AID 2101, 2009. N370S GC spleen homogenate, 4MU-glucoside fluorescence. Lysosomal acid glucosylceramidase (Homo sapiens), P04062. actives 0.092% (n = 330,000);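 further: 0% = full enzyme activity and -100% = no enzyme basal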
FEN1 inh: qHTS Assay for the Inhibitors of Human Flap endonuclease 1 (FEN1). P39748. Recombinant FEN1 flap cleavage, fluorescence, 15 min. Potency, µM (doses to about 114 µM), inactives show at the highest dose activity change, negative = inhibition, most hits filed as inhibitors. actives 0.35% (n = 390,000); further: nearly all actives have a fitted effect of over 65% in size
Target sequence (P39748 whole entry, looked up): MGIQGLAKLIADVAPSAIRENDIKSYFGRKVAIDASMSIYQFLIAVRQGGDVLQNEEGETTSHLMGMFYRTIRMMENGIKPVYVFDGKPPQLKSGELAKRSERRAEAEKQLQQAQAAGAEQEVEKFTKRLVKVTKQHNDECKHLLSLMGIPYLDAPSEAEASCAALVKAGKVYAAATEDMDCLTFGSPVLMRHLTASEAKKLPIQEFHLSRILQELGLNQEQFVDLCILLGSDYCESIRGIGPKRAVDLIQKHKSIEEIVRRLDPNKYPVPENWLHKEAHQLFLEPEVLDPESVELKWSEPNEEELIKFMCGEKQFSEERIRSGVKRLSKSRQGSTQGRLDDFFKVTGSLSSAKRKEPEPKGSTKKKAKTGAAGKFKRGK
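With each library titrated from low to high concentration, compounds met 10 nM FEN1 for 15 min at room temperature before 50 nM substrate was added; readings at 0 and 15 min fed four-parameter Hill curve fits.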
Numbers without * were called inactive; ? = inconclusive; / = no result given; [ ] = remark or other dose. The call rests on the fitted dose curve; in most records, active means well fitted curve in the direction sought with a large enough effect; inconclusive means small, poorly fitted or top-dose-only effect, or another doubt; inactive means no such curve, though single readings can be large; an effect the other way counts as inactive or inconclusive. Unless noted, on the % scale 0 is the no-effect control and ±100 the full control effect; potency means the concentration at half of the fitted maximal effect. A portion of the library; most or all hits stand in other tables.

| Molecule | N370S GC | FEN1 inh |
| --- | --- | --- |
| COc1ccc(/C(N)=C/C(=O)C(C)(C)C)cc1 | 0% | -10% |
| CCCCNc1nc(NC)nc(Cl)c1SC | -3% | 20% |
| CCN(CC)CC(C)OC(=O)c1cc(OC)c(OC)c(OC)c1 (centres undefined) | -3%[12.8 µM] | 1% |
| COc1ccc(C(=O)N2CCC(c3nc4ccccc4o3)CC2)cc1 | / | -7% |
| CC1CCC(C(C)C)C(=O)/C1=C\c1ccc(NC(=O)CCC(=O)O)cc1 (centres undefined) | 1% | -4% |
| COc1cccc(/C=C2\SC(=S)N(CCCC(=O)N(CCO)c3ccccc3)C2=O)c1 | -5% | ? |
| O=C(CCNS(=O)(=O)c1ccc2c(c1)CCCC(=O)N2)NCc1ccccc1Cl | / | -2% |
| NC1=NC2(CCC(c3ccccc3)CC2)n2c(nc3ccccc32)N1 (centres undefined) | -10% | -8% |
| CCOP(=O)(O)c1ccccc1OCCOc1ccccc1P(=O)(O)OCC | 0% | 3% |
| CC(=O)C1=C(C)NC(=O)CC1c1ccc(F)cc1 (centres undefined) | -18% | 8% |
| Cc1ccc(C)c(SCC(=O)NNC(=O)c2csc(N3CCOCC3)n2)c1 | -10% | -11% |
| COC(=O)c1cn(NC(=O)CCC2CCCC2)c(=O)c2ccccc12 | 9% | 11% |
| COC(=O)C1CCCCN1C(=O)c1ccc2oc(C(C)C)nc2c1 (centres undefined) | -6% | 15% |
| Cc1[nH]c(=O)[nH]c(=O)c1S(=O)(=O)NCCOC12CC3CC(CC(C3)C1)C2 | 1% | 7% |
| CS(=O)(=O)N(CC(=O)Nc1ccc(S(=O)(=O)N2CCCC2)cc1)c1ccccc1F | 5% | -9% |
| COc1ccc(Cl)cc1C(=O)NNC(=O)CSc1nnc2ccccn12 | 2% | -2% |
| Cc1cc(C(=O)COC(=O)c2ccc3c(c2)NC(=O)CS3)c(C)n1CCc1ccc(Cl)cc1 | 8% | -16% |
| COc1ccc(-n2cc(CNCCc3nc(C)cc(C)n3)c(-c3ccccc3Cl)n2)cc1 | ? | 2% |
| FC(F)(F)c1cccc(N2CCN(CC3CC4C=CC3C4)CC2)c1 (centres undefined) | -10% | 5% |
| O=C1CS/C(=N/N=C/c2ccc(OS(=O)(=O)c3ccccc3)cc2)N1 | -20% | -4% |
| CCOc1ccccc1CNC(=O)c1ccc(NC(=O)C2=C(C)OCCS2)cc1 | -2% | -11% |
| Cc1cc(C)c(C#N)c(SCc2ccc(F)cc2)n1 | 26% | -15% |
| CN(C)C(CNC(=O)c1cc2ccccc2o1)c1ccco1 (centres undefined) | / | 15% |
| O=C1CC[C@@H](CN(Cc2ccccn2)Cc2nc(Cc3cccc(C(F)(F)F)c3)no2)N1 | 6% | 18% |
| CN(Cc1ccccc1)c1nnc(NC(=O)Nc2cccc(Br)c2)s1 | / | -3% |

Part of the list above, with two lines to a compound:
Second line of a record: N370S GC | FEN1 inh
> COC(=O)C1CCCCN1C(=O)c1ccc2oc(C(C)C)nc2c1 (centres undefined)
→ -6% | 15%
> Cc1[nH]c(=O)[nH]c(=O)c1S(=O)(=O)NCCOC12CC3CC(CC(C3)C1)C2
→ 1% | 7%
> CS(=O)(=O)N(CC(=O)Nc1ccc(S(=O)(=O)N2CCCC2)cc1)c1ccccc1F
→ 5% | -9%
> COc1ccc(Cl)cc1C(=O)NNC(=O)CSc1nnc2ccccn12
→ 2% | -2%
> Cc1cc(C(=O)COC(=O)c2ccc3c(c2)NC(=O)CS3)c(C)n1CCc1ccc(Cl)cc1
→ 8% | -16%
> COc1ccc(-n2cc(CNCCc3nc(C)cc(C)n3)c(-c3ccccc3Cl)n2)cc1
→ ? | 2%
> FC(F)(F)c1cccc(N2CCN(CC3CC4C=CC3C4)CC2)c1 (centres undefined)
→ -10% | 5%
> O=C1CS/C(=N/N=C/c2ccc(OS(=O)(=O)c3ccccc3)cc2)N1
→ -20% | -4%
> CCOc1ccccc1CNC(=O)c1ccc(NC(=O)C2=C(C)OCCS2)cc1
→ -2% | -11%
> Cc1cc(C)c(C#N)c(SCc2ccc(F)cc2)n1
→ 26% | -15%
> CN(C)C(CNC(=O)c1cc2ccccc2o1)c1ccco1 (centres undefined)
→ / | 15%
> O=C1CC[C@@H](CN(Cc2ccccn2)Cc2nc(Cc3cccc(C(F)(F)F)c3)no2)N1
→ 6% | 18%
> CN(Cc1ccccc1)c1nnc(NC(=O)Nc2cccc(Br)c2)s1
→ / | -3%

(listing goes on)
| Molecule | N370S GC | FEN1 inh |
| --- | --- | --- |
| Cc1c(C(=O)Nc2ccccn2)oc2ccc(Br)cc12 | -1% | 1% |
| CN1CCN(C(CC(=O)Nc2cccc(O)c2)C(=O)O)CC1 (centres undefined) | -6% | / |
| CC1Cc2ccccc2N1C(=O)c1ccnc(C(C)(C)C)c1 (centres undefined) | -4% | 3% |
| CN1CCN(C2=C(Cl)C(=O)N(CCc3ccccc3)C2=O)CC1 | -16% | 7% |
| COc1cccc(C(=O)Nc2cccc(OC(C)=O)c2)c1 | ? | 1% |
| OCC1CCCN(C2CCN(Cc3nc(Cc4cccc(C(F)(F)F)c4)no3)CC2)C1 (centres undefined) | -7% | -12% |
| O=C(Cc1cccc(C(F)(F)F)c1)NCc1ccc(Cl)cc1Cl | 0% | -5% |
| O=C(NCc1ccco1)c1ccccc1-c1nc(-c2ccc(F)cc2)no1 | 5% | 13% |
| N=C1C(c2nc3ccccc3s2)=C(O)CN1NC(=O)c1c[nH]c2ccccc12 | 7% | -10% |
| CCn1c(C)nc2cc(C(=O)NNC(=S)Nc3ccc(OC)cc3)ccc21 | 1% | 3% |
| OCCNc1ncnc2c1c(-c1ccccc1)c(-c1ccccc1)n2Cc1ccco1 | 19% | -13% |
| O=C(CCNS(=O)(=O)c1cccc2nonc12)NC1CCCCC1 | 4% | -10% |
| Cc1cc(Oc2ccc(=O)n(C)n2)nc(Oc2ccc(=O)n(C)n2)n1 | 10% | -9% |
| N/C(=N\NC(=O)c1cccs1)c1cc2ccccc2oc1=O | -4% | 1% |
| CCCCN(CCCNC(=O)c1cc(Nc2ccc(OC)cc2OC)nc2ccccc12)Cc1ccccc1 | / | -18% |
| CCOC(=O)C(=O)Nc1ccccc1C(=O)OC | 0% | -2% |
| COc1ccc(/C=C/c2ccncc2)cc1 | 9% | -11% |
| COc1cc(N2CCOCC2)ccc1C=C(C#N)C#N | -5% | 13% |
| Cn1ncc([N+](=O)[O-])c1C(=O)Nc1cccc2ccccc12 | -2% | 4% |
| Cc1ncc(CO)c2cc(C(N)=O)c(=Nc3ccccc3)oc12 | 1% | -10% |
| CC(=O)Nc1ccc(S(=O)(=O)NCCNS(=O)(=O)c2ccc(NC(C)=O)cc2)cc1 | -2% | 3% |
| Cn1c(=O)[nH]c(=O)c2c1nc(NCCc1ccccc1)n2CC(O)COc1ccccc1 (centres undefined) | 7% | 17% |
| Cc1c(Cl)cccc1NC(=O)CSc1nc(=O)n(Cc2ccccn2)c2c1CCC2 | / | -8% |
| COc1ccc(S(=O)(=O)NCc2csc(-c3cccnc3)n2)cc1 | 3% | 19% |
| N#C/C(=C\c1ccccc1)C(=O)OCC(=O)N1CCCC1 | 16% | 21% |

| Molecule | N370S GC | FEN1 inh |
| --- | --- | --- |
| CCN(C(=O)COC(=O)c1cc([N+](=O)[O-])ccc1N1CCOCC1)C1CCCCC1 | -13% | 4% |
| Cc1cc(NC(=O)CCC(=O)N(Cc2cccs2)C(C)(C)C(=O)NC2CCCCC2)no1 | 0% | 3% |
| O=C(CN1CCN(S(=O)(=O)c2ccc(F)c(Cl)c2)CC1)N1CCNC1=O | / | -1% |
| CC(Oc1ccccc1F)c1nnc(SCC(=O)N(c2ccccc2)C2CCS(=O)(=O)C2)o1 (centres undefined) | / | 17% |
| CCCNC(=O)c1nnsc1S(=O)(=O)c1ccc(Cl)cc1 | 3% | -11% |
| Cc1ccnc(SC2CC(=O)N(c3ccc(F)cc3)C2=O)n1 (centres undefined) | -6% | 2% |
| CC1CCC(C(=O)NC(C(=O)NCc2ccccn2)C(C)C)CC1 (centres undefined) | -1% | -3% |
| CCn1cc(C(=O)NP(=O)(Nc2ccc(C)cc2)Nc2ccc(C)cc2)c2ccccc21 | -5% | -10% |
| Cc1ccc(C(=O)OCC(=O)NCCc2ccccc2)cc1C | / | 15% |
| CCc1cc2c(=O)n(-c3ccccc3)c(=S)[nH]c2s1 | 8% | 9% |
| CC(C)NC(=O)c1cc2c(C(F)(F)F)nn(C)c2s1 | -9% | -3% |
| CCOC(=O)C1=C(C)N(Cc2ccc(C(=O)O)cc2)C(=O)NC1c1ccc([N+](=O)[O-])cc1 (centres undefined) | -6% | -2% |
| CCC(C)NC(=O)CN(c1cc(Cl)cc(Cl)c1)S(C)(=O)=O (centres undefined) | -19% | -3% |
| Cc1ccccc1OCCC(=O)OCC(=O)NC(C)c1ccccc1 (centres undefined) | 0% | 12% |
| CCc1ccccc1N(CC(=O)N1CCN(c2ccccc2)CC1)S(C)(=O)=O | 8% | 7% |
| O=C(NCC(c1cccs1)S(=O)(=O)c1cccs1)c1ccccc1 (centres undefined) | / | 1% |
| Cc1cccc(CCNC(=O)CC2C(=O)NCCN2Cc2ccc(F)c(F)c2)n1 (centres undefined) | 2% | 18% |
| O=C(NCCCN1CCOCC1)/C(=C/c1cccnc1)NC(=O)c1ccccc1 | -2% | -4% |
| CCO[C@H]1OC(C(=O)NC2CC2)=C[C@@H](C)[C@@H]1CCCO | 8% | 6% |
| Cc1cc(NS(=O)(=O)c2ccc(NC(=O)c3ccc(Br)o3)cc2)nc(C)n1 | 0% | 8% |
| CCC(=O)OCC(=O)[C@@]1(OC(=O)CC)[C@@H](C)C[C@H]2[C@@H]3CCC4=CC(=O)C=C[C@]4(C)[C@@]3(F)[C@@H](O)C[C@@]21C | 4% | / |
| COc1cc(NC(=O)C2CC2)c(OC)cc1NC(=O)CCC(=O)NC1CCN(Cc2ccccc2)CC1 | -4% | -2% |
| COc1ccccc1CNC(=O)Cn1ccsc1=N | -14% | 0% |
| COc1ccc(CC(=O)Nn2c(-c3ccccc3)nc3ccccc3c2=O)cc1 | 23% | 2% |
| CCOC(=O)C1CCN(C(=O)COc2cccc3ccccc23)CC1 | -3% | 0% |

| Molecule | N370S GC | FEN1 inh |
| --- | --- | --- |
| COc1ccc(C(=O)OCCCOC(=O)c2ccc(OC)cc2OC)c(OC)c1 | -3% | 6% |
| Cc1cc(C)c(S(=O)(=O)Nc2ncn[nH]2)c(C)c1 | 1% | 4% |
| CC(=O)N1CCN(C(=O)c2ccc(NS(=O)(=O)c3ccc4c(c3)OCCO4)cc2)CC1 | 2% | 1% |
| CCN(CC)S(=O)(=O)c1ccc(Cl)nc1 | -2% | 0% |
| COc1ccc(CCn2c(C)cc(C(=O)COC(=O)c3ccc(NC(=O)CC#N)cc3)c2C)cc1 | -2% | -18% |
| Cc1ccc(/C=N/NC(=O)c2cccc(S(=O)(=O)N3CCOCC3)c2)o1 | 1% | 12% |
| COc1ccc(OC)c(CNC(=O)c2c(C)oc3ncn(C)c(=O)c23)c1 | / | 17% |
| CCOC(=O)N1CCN(S(=O)(=O)c2ccc(C(=O)NNc3nc4c(C)cc(C)cc4s3)cc2)CC1 | 11% | -17% |
| COc1ccc(C(=O)N/N=C(\C)c2cccc(NC(=O)c3ccc(F)cc3)c2)c(OC)c1 | -16% | -2% |
| CCN(CCO)C(=O)C12CCC(C)(C(=O)C1)C2(C)C (centres undefined) | 8% | -2% |
| Nc1ccc2nc(COc3ccccc3)[nH]c2c1 | 2% | -12% |
| COc1ccc(C(=O)N/C(=C/c2ccco2)C(=O)N2CCCCCC2)cc1 | -6% | 11% |
| CCOC(=O)N/N=C/c1cc(C)n(-c2cccc3ccccc23)c1C | -27% | -15% |
| O=C(CNS(=O)(=O)c1ccc(Cl)cc1)OCC(=O)N1CCCc2ccccc21 | -4% | 6% |
| CCn1cc(C(=O)NCc2ccc(C)o2)c2cc(OC)c(OC)cc2c1=O | -21% | -2% |
| COc1cc(C2CC(=O)c3c(ccc4ccccc34)N2)ccc1O (centres undefined) | ? | -1% |
| O=C(Nc1cccc(S(=O)(=O)N2CCOCC2)c1)c1cc2c(s1)CCC2 | -3% | -13% |
| CC(=O)N1CCc2cc(S(=O)(=O)NC(CC(C)C)C(=O)NCc3ccccc3)ccc21 (centres undefined) | / | 19% |
| CC(=O)C1=C(c2ccc(C)cc2)N(C(C)=O)n2c(nnc2-c2ccccc2)S1 | / | 20% |
| Nc1nnn(CC(=O)N/N=C/c2ccccc2)n1 | -3% | 0% |
| Cc1c(NC(=O)C2CCCO2)cccc1[N+](=O)[O-] (centres undefined) | 8% | -1% |
| O=c1c2[nH]c3cccc(Cl)c3c2ncn1CCN1CCCCC1 | 12% | -6% |
| COc1ccc(N2CCN(C(=O)C3CCN(Cc4nc(-c5ccc(Cl)cc5)oc4C)CC3)CC2)cc1 | / | -2% |
| O=C(O)Cn1c(-c2cscn2)nc2ccccc21 | 2% | -11% |
| CC(C)OCCCNC(=S)N1CCC(C(=O)c2ccc(Cl)cc2)CC1 | -6% | 6% |
| CCCN(CCC)C(=O)CC(c1ccccc1)c1cc(Br)ccc1O (centres undefined) | 3% | -17% |
| COc1ccc(NC(=O)c2ccc(CN3CCN(c4ccccc4)CC3)cc2)cc1 | -7% | 8% |
| Cc1ccc(C)c(Nc2nn3c(=O)c4ccc(C(=O)NCc5cccnc5)cc4nc3s2)c1 | -10% | -3% |

Rewritten with values under each structure: entries from further up.
Fields: N370S GC, FEN1 inh
> COc1ccc(C(=O)N/C(=C/c2ccco2)C(=O)N2CCCCCC2)cc1
 : -6%, 11%
> Cc1ccc(/C=N/NC(=O)c2cccc(S(=O)(=O)N3CCOCC3)c2)o1
 : 1%, 12%

Screening results as filed in PubChem.
